Bioassay records from PubChem.
PK Bst: modulators of Bacillus stearothermophilus pyruvate kinase; partly purified Bacillus stearothermophilus pyruvate kinase, luminescence ATP production; ribose 5-phosphate activator present at AC10; Potency, µM; 51,000 tested, 1.2% active; AID 361; in the data active means potency below about 11 µM; inconclusive means mostly about 12 µM to 25 µM; inactive means weaker than that;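 the screen sought inhibitors and activators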;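 further: potency means the concentration at half of the fitted maximal effect; scaled between full activation by ribose 5 phosphate and full inhibition by luteolin; about four in five hits inhibit and the cells do not say which; series up to 57 µM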
YjeE inh: YjeE (TsaE) inhibition, E. coli; P0AF67; Potency, µM; purified YjeE, fluorescence polarisation of a bound ADP probe; AID 605; 71,000 tested, 0.05% active; active = well fitted falling curve; inconclusive = weaker or top-dose-only fall, or a rising curve; inactive = flat or poorly fitted curve;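 further: top concentration of the series not given in the record; excess ADP was the control for the full effect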
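Purified YjeE (10 uM) with BODIPY Texas Red-labeled ADP probe (2 uM); compounds pin-transferred, 15 min at room temperature. Binding inhibition read as decreased fluorescence polarization; ADP titration as control.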
Active calls of the source: *; i = inactive; ? = inconclusive; nt = not tested or not shown. A portion of the library; rates above refer to the full screens.

A first look (three entries):
YjeE inh	PK Bst	SMILES
i	>57	CC(C(=O)Nc1ccc(S(=O)(=O)N2CCOCC2)cc1)N(c1ccccc1)S(C)(=O)=O (stereo not given)
i	>57	COCCn1nnnc1C(C(C)C)N1CCOCC1 (stereo not given)
i	nt	Nn1cnnc1SCC(=O)Nc1ccc(C2CCCCC2)cc1

Results, repeating the preview:
YjeE inh	PK Bst	SMILES
i	>57	CC(C(=O)Nc1ccc(S(=O)(=O)N2CCOCC2)cc1)N(c1ccccc1)S(C)(=O)=O (stereo not given)
i	>57	COCCn1nnnc1C(C(C)C)N1CCOCC1 (stereo not given)
i	nt	Nn1cnnc1SCC(=O)Nc1ccc(C2CCCCC2)cc1
i	>57	COc1cc2c(cc1OC)C(c1ccc3c(c1)OCO3)CC(=O)N2 (stereo not given)
i	>57	CCOc1cc(C2C(C#N)=C(N)Oc3n[nH]c(-c4ccccc4)c32)ccc1O (stereo not given)
i	>57	Cc1ccccc1C(=O)N1CCCN(C(=O)c2ccccc2C)CC1
i	>25.6	C#CCN(C)Cc1ccccc1
i	nt	O=C(O)Cc1ccc2[nH]c3ccc(CC(=O)O)cc3c2c1
i	nt	N=C(N)SCCSC(=N)N
i	>57	O=CN1CCN(C2CC(=O)N(c3ccc(Br)cc3)C2=O)CC1 (stereo not given)

(next part)
YjeE inh	PK Bst	SMILES
i	>57	CN(c1ccccc1C(=O)N1CCOCC1)S(C)(=O)=O
i	>57	CCOc1ccc(C(C)=O)cc1N1C(=O)C2C3C=CC(C3)C2C1=O (stereo not given)
i	>57	COc1ccccc1NC(=O)N1CCCC1C(=O)NCc1ccccc1F (stereo not given)
i	nt	Nc1ccc2oc(-c3cccc(Br)c3)nc2c1
i	>57	CCN(CC)C(=O)CSCC(=O)Nc1ccccc1
i	>57	Cc1nn(C)cc1CN(C)C(=O)c1nn2c(c1Cl)NC(c1cccs1)CC2C(F)(F)F (stereo not given)
i	nt	Cc1cc(=O)[nH]c2cc3oc4ccccc4c3cc12
i	>57	O=C(c1ccc2c(c1)OCO2)N1CCN(c2ccccc2F)CC1
i	>57	COC(=O)c1cccc(NC(=O)Cn2cnc3ccccc3c2=O)c1
i	>57	CCOC(=O)c1ccc(NC(=O)CCc2nc(-c3ccc(C)cc3)no2)cc1

Other compounds
YjeE inh	PK Bst	SMILES
i	nt	C[C@H]1CC(C)(C)C[C@@](OCCN2CCCCC2)(c2ccccc2)C1
i	>57	CCOc1cc(C(=S)N2CCN(C)CC2)ccc1OCC(=O)N1CCOCC1
i	>57	COC(=O)c1cc(NC(=O)c2ccoc2C)cc(C(=O)OC)c1
i	>57	Nc1nonc1C(=Nc1ccccc1)NO
i	>57	Cc1ccc(C2C(C#N)=C(N)Oc3n[nH]c(C)c32)cc1 (stereo not given)
i	>57	COc1ccc(C2C(=O)N(C3CCCCC3)CC(=O)N2CCc2ccccc2)cc1OC (stereo not given)
i	>57	COCCn1nnnc1C(c1cccs1)N1CCN(c2ccccc2)CC1 (stereo not given)
i	>57	O=C(O)C1CC(=O)N(c2ccc(Br)cc2)C1 (stereo not given)
i	>57	CC(=O)OC(C(=O)NCS(=O)(=O)c1ccc(C)cc1)c1cccnc1 (stereo not given)
i	>57	Cc1ccn2cc(CCNC(=O)CC(C)(C)C)nc2c1

(cont.)
YjeE inh	PK Bst	SMILES
i	nt	Cc1ccc2cc(CCNC(=O)c3ccc(Br)o3)c(=O)[nH]c2c1
i	>57	COc1cccc(-n2ccnc2SCC(=O)Nc2cc(OC)ccc2OC)c1
i	nt	O=C(Nc1ccc(-c2nc3cccnc3s2)cc1)c1ccc(Br)o1
i	nt	CCOc1nc(CC)nc(NC(=O)NS(=O)(=O)c2ccccc2Cl)n1
i	>57	Cc1noc(C)c1COC(=O)CCCOc1ccc(Cl)cc1Cl
i	nt	CCOc1ccccc1NC(=O)CSc1ccccc1
i	>57	c1ccc(CC2CCN(c3nc(N4CCOCC4)nc(N4CCOCC4)n3)CC2)cc1
i	>57	CC(C)CC(=O)Nc1ccc(C(=O)COc2ccc(-c3nnco3)cc2)cc1
i	nt	c1ccc(CCNc2c3c(nc4ncnn24)CCC3)cc1
i	nt	CC(=O)n1c(COS(C)(=O)=O)nc2ccccc21

The list goes on:
YjeE inh	PK Bst	SMILES
i	>57	CCOc1ccc(NC(=O)C2CC(=O)NC(N3CCc4ccccc43)=N2)cc1 (stereo not given)
i	>57	COc1cccc(C(=O)CSc2nnc(CNS(=O)(=O)c3ccc(C)cc3)n2C)c1
i	>57	CCOc1cc(CN2CCN(C(=O)CC(C)C)CC2)ccc1OC
i	>57	Cc1cc(C)n(C(=O)c2ccc(NC(=O)CC(C)C)cc2)n1
i	i	O=S(=O)(Nc1ccc2c(c1)OCO2)c1ccc(Br)s1
i	i	Cc1cccn2c(=O)c3cc(C(=O)NCC4CCCO4)c(=N)n(Cc4cccnc4)c3nc12 (stereo not given)
i	>57	COc1cc(NC(=O)CSc2nnc(C)s2)cc(OC)c1OC
i	>57	Cc1cc(NC(=O)CSc2ccc3nnc(-c4ccc(Cl)cc4)n3n2)no1
i	>57	COc1ccc(N2CCN(C(=O)CCCn3c(=S)[nH]c4cc5c(cc4c3=O)OCO5)CC2)cc1
i	>57	COc1cc(-c2nc(S(=O)(=O)c3ccc(Cl)cc3)c(N(C)C)o2)cc(OC)c1OC

The results go on:
YjeE inh	PK Bst	SMILES
i	>57	Cc1ccc(S(=O)(=O)NC(=O)c2cc(C)n(CCCN3CCOCC3)c2C)cc1
i	>57	CCOC(=O)CN(C(=O)CSc1nnc(CNc2ccc(F)cc2)o1)c1ccccc1
i	>57	COc1ccc(CCN2C(=O)CC(C(N)=O)SC2=Nc2ccccc2)cc1OC (stereo not given)
i	>57	CCC1(NC(C)=O)CC2CC1CC2NC(C)=O (stereo not given)
i	nt	COc1ccccc1CCNC(=O)CSc1nc(-c2ccco2)cc(C(F)(F)F)n1
i	1.48*	c1ccc2nc(-c3nc4ccccc4o3)ccc2c1
i	>57	CN(C)c1nc(N)nc(CSc2ncc(Cl)cc2Cl)n1
i	>57	COCCNC(=O)C(c1cccs1)N(C(=O)Cn1nnc2ccccc21)c1ccccc1 (stereo not given)
i	>57	Cc1nnc(N(C)C(=O)Cc2ccc3c(c2)OCO3)s1
i	>57	Cn1c(=O)c2c(nc(CN3CCN(C(=O)c4ccco4)CC3)n2Cc2ccc(Cl)cc2)n(C)c1=O

Reprinted at random: 5 entries already listed, in no set order.
YjeE inh	PK Bst	SMILES
i	>57	Cc1cc(C)n(C(=O)c2ccc(NC(=O)CC(C)C)cc2)n1
i	>57	COC(=O)c1cc(NC(=O)c2ccoc2C)cc(C(=O)OC)c1
i	>57	Cn1c(=O)c2c(nc(CN3CCN(C(=O)c4ccco4)CC3)n2Cc2ccc(Cl)cc2)n(C)c1=O
i	>25.6	C#CCN(C)Cc1ccccc1
i	1.48*	c1ccc2nc(-c3nc4ccccc4o3)ccc2c1

(next part)
YjeE inh	PK Bst	SMILES
i	nt	c1ccc2nc(CC[C@@H]3CCCCN3)ccc2c1
i	nt	COC(=O)C1(C)NC(=O)c2ccccc2N1 (stereo not given)
i	nt	CN(C(=O)COc1cc(=O)n(C)c2ccccc12)c1cccc(Cl)c1
i	>57	Cn1c(=O)[nH]c(=O)c2c1nc(N1CCOCC1)n2CCN1CCOCC1
i	>57	COC(=O)C1=C(C(C)=O)C(c2ccc(C)cc2)n2nnnc2N1 (stereo not given)
i	>57	Cc1nn(Cc2ccc(Br)cc2)c(C)c1NC(=O)c1nn(C)cc1Cl
i	>57	O=C(COC(=O)c1ccc[nH]c1=O)NC1CCCC1
i	9.21*	c1ccc(-n2nnc3c(N4CCOCC4)ncnc32)cc1
i	nt	CC1=CC(C)=Nc2ccc(C)cc2N1
i	nt	CCc1ccccc1N(CC(=O)NCc1ccco1)C(=O)c1snc(C(N)=O)c1N

Next entries.
YjeE inh	PK Bst	SMILES
i	>57	O=C(C1CCCN(S(=O)(=O)c2ccc(F)cc2)C1)N1CCCC1 (stereo not given)
i	>57	O=C(Nc1cnn(Cc2ccc(Cl)cc2)c1)C1CCCC1
i	>57	O=C(O)C1CC(c2cccc(Br)c2)=NO1 (stereo not given)
i	nt	O=C(c1cc(-c2cccc(O)c2)on1)N1CCN(C(c2ccccc2)c2ccccc2)CC1
i	>57	O=C(Cn1nc(-c2ccccc2)ccc1=O)Nc1ccc(N2CCN(C(=O)c3ccccc3)CC2)cc1
i	>57	Cc1cccc(OCc2nnc(SCc3nc4ccccc4c(=O)[nH]3)o2)c1
i	>57	CCN1C(=O)/C(=C/N2CCc3ccccc32)SC1=S
i	>57	Cc1cc(Cl)cc(C)c1OCCCCn1ccnc1
i	>57	CC1(C)CC(=O)c2cnc(NC(=O)CSc3nc4ccccc4o3)nc2C1
i	>57	CCCCn1c(SCN2C(=O)c3ccccc3C2=O)nc2cc(S(N)(=O)=O)ccc21

Remaining list, next part:
YjeE inh	PK Bst	SMILES
i	nt	O=C(c1cc(C(F)(F)F)cc(C(F)(F)F)c1)N1CCC2(CC1)CCN(c1ccccc1)CC2
i	>57	COc1cccc(-c2cc(C(F)(F)F)n3nc(N)nc3n2)c1
i	>57	Cc1ccccc1-c1nnn(CC(=O)c2ccc(S(=O)(=O)N3CCCC3)cc2)n1
i	nt	OC[C@@H]1NC[C@@H](O)[C@@H](O)[C@H]1O
i	>57	CCC(=O)Nc1ccc(C(=O)Nc2ccc3c(c2)C(=O)N(CC2CCCO2)C3=O)cc1 (stereo not given)
i	nt	COc1ccccc1S(=O)Cc1ccc(C(=O)NC2CCCC2)o1 (stereo not given)
i	>57	O=C(Cn1nnc(-c2ccc(S(=O)(=O)N3CCCC3)cc2)n1)NCC1CCCO1 (stereo not given)
i	nt	O=C(O)c1ccccc1C(=O)N1CC=C(c2ccccc2)CC1
i	>57	CCN1CCN(C(=O)c2ccccc2N(Cc2ccccc2)S(C)(=O)=O)CC1
i	>57	CC(C)C(NC(=O)C1CCCCC1)C(=O)N1CCN(c2ccc(F)cc2)CC1 (stereo not given)

The list continues.
YjeE inh	PK Bst	SMILES
i	>57	COc1ccccc1NC(=O)c1ccccc1NS(C)(=O)=O
i	nt	O=C1c2ccccc2C(Nc2ccc(Cl)cn2)N1c1cccnc1 (stereo not given)
i	nt	COc1ccc(Cc2ccccc2C(=O)O)c2ccccc12
i	nt	CCCc1cc(=O)oc2cc3occ(C)c3cc12
i	nt	CCCC(C)NC(=O)c1ccc(F)cc1 (stereo not given)
i	>57	CCC(C)(C)n1nnnc1C(c1ccc(C)cc1)N1CCN(Cc2cccnc2)CC1 (stereo not given)
i	>57	CCOC(=O)C1=C(C)OC(N)=C(C#N)C1c1ccsc1 (stereo not given)
i	nt	O=C(Nc1cccc2cccnc12)[C@@H]1[C@@H](C(=O)O)[C@H]2CC[C@@H]1O2
i	>57	Cc1ccc(-n2c(SCC(=O)OC(C)C)nnc2-c2ccncc2)cc1
i	nt	N#Cc1cc2[nH]c(=O)c(=O)[nH]c2cc1[N+](=O)[O-]

Next results follow.
YjeE inh	PK Bst	SMILES
i	?	CCOc1ccc(NC(=O)c2nccnc2CO)cc1
i	nt	O=C(O)CCc1nc2ccccc2n(CCc2ccccc2)c1=O
i	>57	Cc1cc(C)n(CCc2nc3c4ccccc4nc(SCc4ccc(C#N)cc4)n3n2)n1
i	>57	Cc1ccc(C2(C)NC(=O)N(CC(=O)Nc3ccc4c(c3)OCO4)C2=O)cc1 (stereo not given)
i	>57	Cn1c(C(=O)N2CCCc3ccccc32)cc2c(=O)n3ccccc3nc21
i	nt	O=C(NCC1COc2ccccc2O1)C1CCCN(S(=O)(=O)c2cccc3cccnc23)C1 (stereo not given)
i	nt	CS(=O)(=O)Nc1cccc(-c2cncnc2Nc2ccccc2)c1
i	nt	Cc1cnc2cc(Cl)ccc2c1SCC(=O)O
i	>57	O=C(CCN1CCN(c2ccccc2F)CC1)c1ccc(Br)cc1
i	>11.4	CCC(C)c1ccc(NC(=O)CC(C)=O)cc1 (stereo not given)

One compound at a time, from the list above. Values in the order: YjeE inh, PK Bst
`CS(=O)(=O)Nc1cccc(-c2cncnc2Nc2ccccc2)c1` is entered as i, nt
`Cn1c(C(=O)N2CCCc3ccccc32)cc2c(=O)n3ccccc3nc21` is entered as i, >57
`Cc1cc(C)n(CCc2nc3c4ccccc4nc(SCc4ccc(C#N)cc4)n3n2)n1` is entered as i, >57
`CCOc1ccc(NC(=O)c2nccnc2CO)cc1` is entered as i, ?

Continued:
YjeE inh	PK Bst	SMILES
i	>57	COC(=O)c1ccc2c(c1)N(Cc1nc(-c3ccc(Cl)cc3)oc1C)C(=O)C1CCCN21 (stereo not given)
i	>57	COC(=O)Nc1sc2c(c1C(N)=O)CCCCCC2
i	>57	COc1ccccc1NC(=O)Cn1nc(C(F)(F)F)c2c1CCCC2
i	>57	Cn1c(=O)oc2ccc(C(=O)CSc3nnnn3-c3ccccc3)cc21
i	>57	CCOC(=O)C(NC(=O)c1ccccc1)(N1CCCC1=O)C(F)(F)F (stereo not given)
i	>57	O=C(CCC(=O)N1CCN(C2CCCCC2)CC1)Nc1nnc(C(F)(F)F)s1
i	nt	N#C/C(=C\Nc1ccccn1)C(=O)c1ccco1
i	nt	O=C(c1cc(S(=O)(=O)N2CCCCC2)c(Cl)cc1N1CCOCC1)N1CCOCC1
i	>57	CCOc1ccc(OCC)c(NC(=O)CN(c2ccc(C)cc2)S(=O)(=O)c2c(C)noc2C)c1
i	nt	CC[C@](N)(CCC(=O)O)C(=O)O
i	>57	Cc1cccc(C)c1NC(=O)Cn1nnc(-c2ccc(N3CCOCC3)cc2)n1
i	>57	CCCc1[nH]nc2c1C(c1cccc(OC(=O)c3ccco3)c1)C(C#N)=C(N)O2 (stereo not given)
i	>57	CC(C)CCn1c(=O)c2ccccc2n2c(CN(C)Cc3ccccc3)nnc12
